Assay outcomes as filed in PubChem BioAssay.
HPGD inh – qHTS Assay for Inhibitors of HPGD (15-Hydroxyprostaglandin Dehydrogenase) | 15-hydroxyprostaglandin dehydrogenase [NAD(+)] (Homo sapiens), P15428 | purified HPGD, NADH fluorescence kinetic, PGE2 substrate | Potency, µM, for inactives: top-dose activity change, negative = inhibition, usual class: inhibitors | 150,000 tested, 4.3% active | AID 894, 2007; active = well fitted inhibition curve with a large enough effect (not every such curve was filed as active); inconclusive = small, poorly fitted or top-dose-only effect, or another doubt; inactive = no such curve, though single readings can be large or run the other way;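 also: top concentration of the series not given in the record; plate controls included wells without enzyme; inactives centre near -10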
Target sequence (P15428 whole entry, looked up): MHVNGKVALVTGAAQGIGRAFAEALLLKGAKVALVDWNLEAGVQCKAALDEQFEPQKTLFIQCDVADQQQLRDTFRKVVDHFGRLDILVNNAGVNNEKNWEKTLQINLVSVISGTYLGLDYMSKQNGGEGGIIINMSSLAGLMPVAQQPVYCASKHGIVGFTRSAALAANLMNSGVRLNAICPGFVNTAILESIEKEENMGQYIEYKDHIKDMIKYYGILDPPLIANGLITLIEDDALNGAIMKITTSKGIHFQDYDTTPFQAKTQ
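NADH formation kinetics: reaction with 30 uM PGE2 and 1 mM NAD+ (final), 20 nM enzyme, Tris-HCl pH 8 with Tween 20, after 15 min compound preincubation at room temperature. Fluorescence change, last versus first of five reads.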
Numbers without * were called inactive; & = joins results of further samples. % is scaled to controls: 0 for no effect and ±100 for the full control effect; potency is read from the fitted curve at half-maximal effect. These rows are one share of the data, so the mix of outcomes need not match the whole.

Results for N#Cc1ccc(-n2c(-c3ccccc3)nnc2-c2ccccc2)cc1C#N ?
HPGD inh: inconclusive

How did O=C(C1CCCO1)N1CCC(O)(c2ccccc2)CC1 (stereo not drawn) do in these assays?
HPGD inh: -6%

Results for Cc1ccc(O)c(C=Nc2ccc3[nH]ncc3c2)c1 ?
HPGD inh: inconclusive

How did O=C1NC2=C(CCc3ccccc32)C(c2ccc(Br)cc2)N1 (stereo not drawn) do in these assays?
HPGD inh: inconclusive

How did C=CCOc1ccc(C2NC(=S)NC(C)=C2C(=O)c2ccccc2)cc1OC (stereo not drawn) do in these assays?
HPGD inh: -20%

Results for Cc1ccc(-c2noc(CCC(N)=O)n2)cc1 ?
HPGD inh: -2%

What do the screens show for `O=C(Nc1nccs1)c1cc(S(=O)(=O)N2CCOCC2)ccc1Cl`?
HPGD inh: -4%

What do the screens show for `CC1CCN(c2ccc(S(=O)(=O)Nc3cc(C(=O)O)cc(C(=O)O)c3)cc2[N+](=O)[O-])CC1`?
HPGD inh: -11%

Results for COC(=O)[C@@H]1C[C@@]2(O)[C@H](O)[C@H](O)[C@H](O)C[C@H]2N1CC1CC1 ?
HPGD inh: -9%

How did Cc1cccc(C)c1Nc1nnc(SCc2nc3ccccc3c(=O)[nH]2)s1 do in these assays?
HPGD inh: -10%

What do the screens show for `O=C(Nc1ccccc1C(=O)O)c1cncc(Br)c1`?
HPGD inh: -26%

How did Nc1nc(SCC(=O)Nc2ccc(Oc3ccccc3)cc2)n[nH]1 do in these assays?
HPGD inh: inconclusive

What do the screens show for `Cc1c(Nc2ncccc2C(=O)O)cccc1C(F)(F)F`?
HPGD inh: -13%&-10%

How did CCOc1cc(C(=O)OCC(=O)c2c(N)n(C)c(=O)n(C)c2=O)cc(OCC)c1OCC do in these assays?
HPGD inh: -22%

How did O=C(NC(=S)Nc1ccc(S(=O)(=O)Nc2nccs2)cc1)c1ccc(F)cc1 do in these assays?
HPGD inh: -23%

Results for C/C(N)=C(/C#N)C(=O)COC(=O)c1cc(-c2ccc(Br)cc2)nc2ccccc12 ?
HPGD inh: inconclusive

How did O=C(NCCN1CCN(c2ccccc2F)CC1)C1CC(=O)N(C2CCCC2)C1 (stereo not drawn) do in these assays?
HPGD inh: -4%

What do the screens show for `CC1(c2ccccc2)CC(C)(C)N(C(=O)C2CCCO2)c2ccccc21` (stereo not drawn)?
HPGD inh: -4%

How did CCC(C)(C)n1nnnc1C(c1ccc(OC)c(OC)c1)N1CCN(c2ccccc2)CC1 (stereo not drawn) do in these assays?
HPGD inh: -16%

What do the screens show for `FC(F)Oc1ccc(NC(=S)NN2CCOCC2)cc1`?
HPGD inh: 2%

What do the screens show for `CCC(=O)Nc1cc(C(=O)O)ccc1S(=O)(=O)c1ccc(C)cc1`?
HPGD inh: -21%

How did CCC[C@@H]1C[C@@]1(CCC)C(NC(=O)c1cccs1)c1ccc(Cl)cc1 (stereo partly drawn) do in these assays?
HPGD inh: -9%

Results for CC1(C)C[C@@H]2C(=O)CCC3O[C@@]3(C)CCC21 (stereo partly drawn) ?
HPGD inh: -8%

Results for CCOC(=O)N1CCN(C(=O)c2ccc3c(c2)ncn3C2CCCC2)CC1 ?
HPGD inh: inconclusive

Results for Cc1ccccc1C=O ?
HPGD inh: -4%

How did CCOC(=O)CSc1nnc([C@@H](NC(=O)OC(C)(C)C)C(C)C)o1 do in these assays?
HPGD inh: 1%

Results for COc1cccc(N(C(=O)CS(=O)CC(=O)Nc2ccc(F)cc2)C(C(=O)NC2CCCCC2)c2cccs2)c1 (stereo not drawn) ?
HPGD inh: -24%

How did Cc1ccnc(N)c1 do in these assays?
HPGD inh: -4%

Results for O=C(Nc1cccc(Cl)c1)OCc1ccccn1 ?
HPGD inh: -5%

Results for CC(C)(C)c1ccc(C(=O)CSc2nc3ccccc3c(=O)[nH]2)cc1 ?
HPGD inh: -15%

Results for CCOC(=O)C1CCN(c2c(NCCCN(CC)c3ccccc3)c(=O)c2=O)CC1 ?
HPGD inh: inconclusive

What do the screens show for `COc1cc2c(=O)n(Cc3ccccc3)c(=O)n(CC(=O)NCCc3ccccc3)c2cc1OC`?
HPGD inh: -28%

Results for O=C(COc1ccccc1[N+](=O)[O-])N/N=C/c1ccc(OC(=O)c2ccco2)cc1 ?
HPGD inh: -13%

Results for Cc1cc(C)nc(SCC(=O)Nc2ncc3c(n2)CCCC3=O)n1 ?
HPGD inh: -8%

What do the screens show for `CCCCC1(CCCC)NC(=S)N(Nc2ccc(C)cc2)C1=O`?
HPGD inh: -10%

How did CC(=O)O[C@H]1C[C@@]2(C)[C@H](C[C@@H](O)[C@H]3[C@@]4(C)CC[C@@H](O)[C@@H](C)[C@H]4CC[C@@]32C)C1=C(CCC=C(C)C)C(=O)O do in these assays?
HPGD inh: -8%

What do the screens show for `O=C(c1cnccn1)N1CCC[C@@]2(CCN(c3ccccn3)C2)C1`?
HPGD inh: -12%

What do the screens show for `FC(F)(F)c1ccc(Cl)c(NC(=S)NC2CC2)c1`?
HPGD inh: 1%

What do the screens show for `C=CCOc1ccc(/C(CC)=N/O)c(OC)c1`?
HPGD inh: -7%

What do the screens show for `COc1ccc(CNC(=O)C/C(C)=N/NC(=O)Cc2ccc(OC)c(OC)c2)cc1`?
HPGD inh: -4%

What do the screens show for `Cc1cc(C(=O)NC(=S)Nc2ccccc2N2CCOCC2)ccc1[N+](=O)[O-]`?
HPGD inh: -19%

How did O=C(NCc1cccnc1)c1cccn2c(=O)c3sccc3nc12 do in these assays?
HPGD inh: inconclusive

What do the screens show for `CC(=O)O[C@H]1CC[C@@]2(C)C(CCC3C2CC[C@]2(C)OC(=O)CCC32)C1` (stereo partly drawn)?
HPGD inh: -10%

What do the screens show for `Cc1ccc(OCC(O)CNC(=O)c2ccccc2C(=O)O)cc1` (stereo not drawn)?
HPGD inh: -7%

What do the screens show for `COC(=O)COc1ccc(S(=O)(=O)N2CCN(c3ccccc3F)CC2)cc1C`?
HPGD inh: -11%

What do the screens show for `O=C(NCc1ccco1)c1cc(-c2ccccc2)nc2ccccc12`?
HPGD inh: -8%

What do the screens show for `Cc1c(NC(=O)OCCNC(=O)COc2ccc(Cl)cc2Cl)sc(=S)n1C`?
HPGD inh: -23%

What do the screens show for `Cc1ccccc1NC(=O)c1cnn(-c2ccccc2)c1NC(=O)c1ccco1`?
HPGD inh: -6%

How did O=C(CN1CCSCC1)N/N=C/c1ccc(F)c(F)c1 do in these assays?
HPGD inh: -9%

How did Cc1c(O)c(CN2CCCC2)cc2c1oc(=O)c1ccccc12 do in these assays?
HPGD inh: -16%

Reprinted from the part before: 6 compounds, followed by the next part.
What do the screens show for `COC(=O)COc1ccc(S(=O)(=O)N2CCN(c3ccccc3F)CC2)cc1C`?
HPGD inh: -11%

What do the screens show for `O=C(NCc1ccco1)c1cc(-c2ccccc2)nc2ccccc12`?
HPGD inh: -8%

What do the screens show for `Cc1c(NC(=O)OCCNC(=O)COc2ccc(Cl)cc2Cl)sc(=S)n1C`?
HPGD inh: -23%

What do the screens show for `Cc1ccccc1NC(=O)c1cnn(-c2ccccc2)c1NC(=O)c1ccco1`?
HPGD inh: -6%

How did O=C(CN1CCSCC1)N/N=C/c1ccc(F)c(F)c1 do in these assays?
HPGD inh: -9%

How did Cc1c(O)c(CN2CCCC2)cc2c1oc(=O)c1ccccc12 do in these assays?
HPGD inh: -16%

What do the screens show for `Cc1ccc(C(=O)N2CCN(c3ccc(NC(=O)c4cccnc4)cc3)CC2)cc1`?
HPGD inh: -4%

Results for O=C(c1ccncc1)N(c1ccc2oc3c(c2c1)CCCC3)S(=O)(=O)c1cccc([N+](=O)[O-])c1 ?
HPGD inh: -13%

Results for CCOc1cccc2c1OC1(CCCCC1)N1N=C(c3cccnc3)CC21 (stereo not drawn) ?
HPGD inh: -7%

What do the screens show for `O=C(O)CCCN1C(=O)C2C3CCC(O3)C2C1=O` (stereo not drawn)?
HPGD inh: -6%

What do the screens show for `O=C(/C=C\c1ccc2c(c1)OCO2)Nc1c2c(nn1-c1ccc(Cl)cc1)CSC2`?
HPGD inh: -9%

How did Cc1nc(SCC(=O)NC(=O)NCCC(C)C)c2c(-c3cccs3)csc2n1 do in these assays?
HPGD inh: -23%

How did CCn1c(SCC(=O)OCc2ccccc2)nc2c1c(=O)n(C)c(=O)n2C do in these assays?
HPGD inh: -25%

What do the screens show for `Cc1cc(N2CCC(C)CC2)nc(SCC(=O)c2ccccc2)n1`?
HPGD inh: -10%

Results for COC(=O)c1c(NC(=O)CN2CCC3(O)CCCCC3C2c2ccc(F)cc2)sc(C)c1C (stereo not drawn) ?
HPGD inh: -21%

Results for O=C(NO)c1ccccc1O ?
HPGD inh: -7%

Results for O=C(c1ccc(S(=O)(=O)N2CCOCC2)cc1)N1CCN=C1SCc1cccnc1 ?
HPGD inh: -6%

How did COc1ccccc1CNC(=O)CCS(=O)(=O)c1cccs1 do in these assays?
HPGD inh: -21%

What do the screens show for `O=C(OCC(=O)c1c[nH]c2ccccc12)c1cccc(S(=O)(=O)N2CCCCCC2)c1`?
HPGD inh: -14%

How did COc1ccccc1N1C(=O)c2ccccc2NC1C(OC)OC (stereo not drawn) do in these assays?
HPGD inh: inconclusive

Results for Cc1ccc(OCC(=O)N2CCN(c3nnc(-c4ccc(C)cc4)c4ccccc34)CC2)cc1 ?
HPGD inh: -16%

How did O=C(NC(=S)Nc1ccc2oc(-c3cccnc3)nc2c1)c1cccc(Cl)c1 do in these assays?
HPGD inh: -18%

How did O=C(CC(=O)NN=C1CCCC1)NCCc1ccccc1 do in these assays?
HPGD inh: -6%

How did CCOC(=O)N1CCN(C(=O)CN(c2ccc(OC)c(OC)c2)S(C)(=O)=O)CC1 do in these assays?
HPGD inh: -7%

What do the screens show for `O=C(Cc1ccccc1)Nc1cc(C(=O)c2ccccc2)ccc1N1CCOCC1`?
HPGD inh: -24%

How did O=C(C1CCN(S(=O)(=O)c2ccccc2)CC1)N1CCOCC1 do in these assays?
HPGD inh: -11%

How did Cn1c(=O)c(-c2ccccc2)nn2c3ccccc3nc12 do in these assays?
HPGD inh: -8%

Results for O=C(Nc1nccs1)c1cnccn1 ?
HPGD inh: -9%

How did NC1=NC(=O)CC(C(=O)NCCc2ccccc2)S1 (stereo not drawn) do in these assays?
HPGD inh: 6%

Results for COC(=O)CC1C(=O)NCCN1C(=O)NC1CCCCC1 (stereo not drawn) ?
HPGD inh: -7%

Results for O=C(CCCn1c(=S)[nH]c2ccccc2c1=O)NC1CCCCC1 ?
HPGD inh: 20µM*

What do the screens show for `CCC(C)c1ccc(NC(=S)Nc2ccc(OC)cc2)cc1` (stereo not drawn)?
HPGD inh: -1%

How did CCOC(=O)c1c(NC(=O)CSc2nnc(C)s2)sc2c1CCCCC2 do in these assays?
HPGD inh: -23%

How did Cc1cc(NCCCN)nc(-c2ccccc2O)n1 do in these assays?
HPGD inh: inconclusive

What do the screens show for `COc1cccc(C(=O)Nc2c3c(nn2-c2ccccc2C)CS(=O)C3)c1OC` (stereo not drawn)?
HPGD inh: -4%

How did CN[C@H](CC(C)C)C(=O)N[C@H]1C(=O)N[C@@H](CC(N)=O)C(=O)N[C@H]2C(=O)N[C@H]3C(=O)N[C@H](C(=O)N[C@H](C(=O)O)c4cc(O)cc(O)c4-c4cc3ccc4O)[C@H](O)c3ccc(c(Cl)c3)Oc3cc2cc(c3O[C@@H]2O[C@H](CO)[C@@H](O)[C@H](O)[C@H]2O[C@H]2C[C@](C)(N)[C@H](O)[C@H](C)O2)Oc2ccc(cc2Cl)[C@H]1O do in these assays?
HPGD inh: -13%

In the list so far, 2 contain a cyano group:
Results for N#Cc1ccc(-n2c(-c3ccccc3)nnc2-c2ccccc2)cc1C#N ?
HPGD inh: inconclusive

Results for C/C(N)=C(/C#N)C(=O)COC(=O)c1cc(-c2ccc(Br)cc2)nc2ccccc12 ?
HPGD inh: inconclusive

Next section.
How did Cc1ccc(-n2c(SCC(N)=O)nnc2-c2ccc(S(=O)(=O)N3CCCCC3)cc2)c(C)c1 do in these assays?
HPGD inh: -14%

What do the screens show for `O=C(CN1CCC(NC(=O)c2ccc(F)cc2)CC1)NCc1ccccc1F`?
HPGD inh: -6%

What do the screens show for `Cc1cc(C)c(C(=O)CC2(O)C(=O)Nc3ccccc32)cc1C` (stereo not drawn)?
HPGD inh: -10%

What do the screens show for `O=C(CSc1ccc(Cl)cc1)Nc1ccccc1N1CCN(C(=O)c2ccccc2)CC1`?
HPGD inh: -8%

Results for c1ccc(-c2cnc(-c3ccc(-c4ncc(-c5ccccc5)o4)cc3)o2)cc1 ?
HPGD inh: -12%

Results for CC1CCCCN1C(=O)CSc1nc2ccsc2c(=O)n1Cc1ccccn1 (stereo not drawn) ?
HPGD inh: -13%

What do the screens show for `Nc1nn(-c2ccccc2)c(N)c1N=Nc1ccccc1F`?
HPGD inh: 13µM*

Results for O=C(Nc1ccc(Br)c2cccnc12)c1ccc(Cn2cc([N+](=O)[O-])cn2)o1 ?
HPGD inh: -9%

What do the screens show for `COc1ccc(/C=C/C=C2\N=C(SC)SC2=O)cc1`?
HPGD inh: -22%

How did C/C(Nc1ccc(C)cc1)=C(/C#N)C(N)=O do in these assays?
HPGD inh: -13%

Results for Cc1ccc(C)c(N2CCN(C(=O)c3ccc(CSc4nc5ccncc5[nH]4)cc3)CC2)c1 ?
HPGD inh: -8%

How did C[C@]12C=CC(=O)C=C1CC[C@@H]1[C@H]3C[C@@H](O)[C@](O)(C(=O)CO)[C@@]3(C)C[C@H](O)[C@]12F do in these assays?
HPGD inh: -15%
